Screening data (PubChem)
AmpC inh no det: AmpC beta-lactamase inhibition, detergent-free assay; AmpC nitrocefin hydrolysis, absorbance 480 nm, no detergent; potencies from a single point are estimates; AID 585; hit rate 1.8% among 71,000; Potency, µM (doses to about 28.7 µM), for the others: at the top dose activity change, negative = inhibition; active = falling curve, for most hits resting on a single point; inconclusive = weak or doubtful change; inactive = flat or rising curve; further: % of control where 0% means no effect; about half of the hits show no inhibition at the top dose; a quarter of the inactives give rising signals
Target sequence (P00811 whole entry, looked up): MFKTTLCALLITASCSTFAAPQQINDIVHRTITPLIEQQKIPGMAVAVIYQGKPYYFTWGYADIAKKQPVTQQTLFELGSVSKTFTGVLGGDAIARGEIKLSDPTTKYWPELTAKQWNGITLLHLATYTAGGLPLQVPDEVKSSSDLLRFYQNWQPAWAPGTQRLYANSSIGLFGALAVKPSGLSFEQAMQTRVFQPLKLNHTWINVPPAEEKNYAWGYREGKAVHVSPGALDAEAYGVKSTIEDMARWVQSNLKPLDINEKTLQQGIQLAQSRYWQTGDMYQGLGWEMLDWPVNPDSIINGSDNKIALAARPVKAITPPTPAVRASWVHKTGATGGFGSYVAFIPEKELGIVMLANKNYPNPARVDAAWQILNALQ
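Enzyme, pH 7.0 phosphate. Compound titrations were pre-incubated with AmpC for 15 min at room temperature before nitrocefin (stock 800 uM) addition; product formation was recorded at 480 nm every 20 s for 4 min.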
* marks the source's active call; other numbers are inactive results; ? = inconclusive; [ ] = remark or other dose. Potency means the concentration at half of the fitted maximal effect.

| Molecule | AmpC inh no det |
| --- | --- |
| CC(=O)Nc1cccc(-c2nnc(SCc3ccccc3C#N)n2C)c1 | -1% |
| CCOC(=O)C1=C(N)n2c(s/c(=C/c3ccco3)c2=O)=C(C(=O)OC)C1c1ccco1 (centres undefined) | 17% |
| CC1(C)CC(=O)C(Sc2nnc(-c3ccc(NS(C)(=O)=O)cc3)n2Cc2ccco2)C(=O)C1 | -13% |
| COC(=O)c1cccc(-n2nnnc2SCC(=O)Nc2cc(C)on2)c1 | 9% |
| O=S1(=O)C=CC(N2CCOCC2)C1 (centres undefined) | -3% |
| COc1cccc2c1OC1(C)CC2NC(=O)N1c1cccc(C(=O)N2CCN(c3ccccn3)CC2)c1 (centres undefined) | 64% |
| COc1cccc(OC)c1C(=O)N1CC(C)OC(C)C1 (centres undefined) | 1% |
| Cc1cc(C)nc(NC(=NCc2ccc3c(c2)OCO3)NC(=O)Nc2ccccc2)n1 | 6% |
| CCn1c(SCC(=O)NC(=O)Nc2ccc3c(c2)OCCO3)nnc1-c1cccs1 | 9% |
| Cc1ccc(SCc2nc(-c3cccnc3)no2)cc1 | 20% |
| COc1ccc(CNC(=O)c2onc(C)c2Cl)cc1 | -12% |
| CCCOc1ccc2oc(=O)c3c(c2c1)CCCN3C(=O)CN1CCN(c2ncccn2)CC1 | 108% |
| COc1cc(NC(=O)CSc2nccc(C)n2)c(C(=O)O)cc1OC | -12% |
| O=C(NCP(=O)(O)O)c1cccnc1 | -6%[5.75 µM] |
| Cc1ccc(C)c(NC(=O)CSc2nnc([C@@H]3CCCN3C(=O)OC(C)(C)C)o2)c1 | 72% |

(continued)
| Molecule | AmpC inh no det |
| --- | --- |
| CC(=O)OC(C(=O)NCc1ccco1)c1ccncc1 (centres undefined) | -4% |
| CCN1CCN(C(=O)c2ccc3c(=O)n(CCC4=CCCCC4)c(=O)[nH]c3c2)CC1 | 104% |
| CC(C)NC(=O)CCCc1cn(C)c2ccccc12 | 7% |
| Cc1cccc(Nc2nc(N)nc(CN3CCN(c4ccccc4F)CC3)n2)c1 | 67% |
| Cc1ccc(S(=O)(=O)c2nc(-c3cccs3)oc2SCC(N)=O)cc1 | 4% |
| O=C1c2ccccc2C2NC(=O)C3(CCCCC3)N12 (centres undefined) | 1% |
| Cc1ccsc1C(=O)OCC(=O)NCC1CCCO1 (centres undefined) | -3% |
| Clc1cccc(Cl)c1Cn1cnc2c(N3CCCCCC3)ncnc21 | 30% |
| O=C(NCc1ccco1)c1ccccc1NS(=O)(=O)c1cccs1 | ? |
| CC/C=C\C[C@H]1C(=O)CC[C@@H]1CC(=O)O | 8% |
| O=C(CCC1CCCC1)Nc1ccon1 | 2% |
| O=C1CC(N2CCN(Cc3ccc4c(c3)OCO4)CC2)C(=O)N1CCc1ccccc1 (centres undefined) | 79% |
| CCOC(=O)c1cc(=O)n2nc(-c3ccccc3F)nc2s1 | 0% |
| CCCN1C(=O)c2ccc(C(=O)NCc3ccco3)cc2C1=O | 6% |
| CCOC(=O)c1nnn(-c2nc(N3CCCC3)nc(N3CCCC3)n2)c1-c1ccccc1 | 103% |

The results go on.
| Molecule | AmpC inh no det |
| --- | --- |
| CCCc1cc(=O)n2[nH]c(NCc3ccccc3F)nc2n1 | -7% |
| CCN(c1ccccc1)S(=O)(=O)c1ccc2[nH]cc(C(=O)NCCOC)c(=O)c2c1 | 84% |
| CCOC(=O)CSc1nc2sc(C)c(C)c2c(=O)[nH]1 | 5% |
| O=C(OCC(=O)N1CCOCC1)c1ccc[nH]c1=O | -7% |
| Cc1csc2nc(CSc3nc4ccccc4o3)c(Br)n12 | 18% |
| COc1ccccc1CNC(=O)c1cnc2sccn2c1=O | 6% |
| Clc1cncc(N2CCNCC2)n1 | -1% |
| CCN(CC)c1ccc2c(C)c(CN3CCOCC3)c(=O)oc2c1 | 63% |
| CC1CCCC(C)N1C(=O)Cn1c(SCC(=O)NCc2ccc3c(c2)OCO3)nc2ccccc21 (centres undefined) | 53% |
| COc1ccc2c3c1O[C@@H]1C(=O)CC[C@@]4(O)[C@@H](C2)N(CC2CC2)CC[C@]314 | 12% |
| COC(=O)CSc1nnc(-c2ccco2)n1Cc1ccco1 | -9% |
| O=C(CC(=O)c1ccccc1)Nc1ccc2c(c1)OCCO2 | -11% |
| Cc1cc(C)n(-c2nc3c(c(=O)[nH]c(=O)n3C)n2Cc2ccccc2)n1 | -2% |
| COc1ccccc1N1CCN(C(=O)c2ccncc2)CC1 | 3% |
| Cc1ccc(C)c(N2CCN(C(=O)C3CCN(c4nc(C)cc(C)n4)CC3)CC2)c1 | 124% |

(next part)
| Molecule | AmpC inh no det |
| --- | --- |
| O=C(Nc1cccc(-c2nc3ccccc3[nH]2)c1)c1ccco1 | -20% |
| CCN(CCNC(=O)CC1Oc2ccccc2NC1=O)c1ccccc1 (centres undefined) | 4µM*[single pt active] |
| NCCc1c[nH]c2ccccc12 | -4% |
| COc1ncc2nc(C)c(=O)n(Cc3ccc(F)cc3)c2n1 | 25% |
| CC(=O)c1cccc(NC(=O)CN(c2ccccc2)S(C)(=O)=O)c1 | -8% |
| Cn1c(C(=O)N2CCC(C(=O)N3CCOCC3)CC2)cc2sccc21 | 40% |
| O=C(O)c1nn(-c2ccc(Cl)cc2)ccc1=O | -13% |
| COc1ccc(C2c3c(oc4ccccc4c3=O)C(=O)N2c2ccc(C)cn2)cc1OC (centres undefined) | 15% |
| CCN1C[C@@]2(COC)CC[C@H](OC)[C@]34[C@@H]1[C@]1(OCO[C@@]15C[C@@H](OC)C1C[C@H]3[C@H]5[C@@H]1OC)[C@H](O)[C@@H]24 | -2%[12.8 µM] |
| CC1Cc2ccccc2N1C(=O)CSc1nnc(-c2ccc(S(=O)(=O)N3CCCCC3)cc2)o1 (centres undefined) | 17% |
| CCC1CCCCN1CCCNC(=O)c1cn(CC(C)C)c(=O)c2cc(OC)c(OC)cc12 (centres undefined) | 51% |
| COC(=O)CN1CCN(C(c2ccccc2)c2ccccc2)CC1 | 67% |
| Cc1cccc(N(CC(=O)NC2CCCC2)C(=O)CS(=O)CC(=O)Nc2ccc3c(c2)OCO3)c1 (centres undefined) | 44% |
| O=C(c1cc2ccccc2oc1=O)N1CCCC1 | -6% |
| Cc1ccccc1S(=O)(=O)Cc1ccc(C(=O)N2CCN(c3cccc(C)c3C)CC2)o1 | 85% |

Among those listed so far, three contain a COOH group:
| Molecule | AmpC inh no det |
| --- | --- |
| COc1cc(NC(=O)CSc2nccc(C)n2)c(C(=O)O)cc1OC | -12% |
| CC/C=C\C[C@H]1C(=O)CC[C@@H]1CC(=O)O | 8% |
| O=C(O)c1nn(-c2ccc(Cl)cc2)ccc1=O | -13% |

(list continues)
| Molecule | AmpC inh no det |
| --- | --- |
| O=C(COc1ccc(F)cc1)NCC1CCCO1 (centres undefined) | 2% |
| CCOC(=O)c1c(-c2ccccc2)nnn1-c1nc(OCC)nc(N2CCCCC2)n1 | 76% |
| CSc1ccc2c(c1)[C@H](N1CCN(C)CC1)Cc1ccccc1S2 | 120% |
| CCCCn1c(NCc2ccccc2O)nc2ccccc21 | 4µM*[single pt active] |
| CCOc1ccc(C(=O)CN2CCN(S(=O)(=O)c3ccc(F)cc3)CC2)cc1 | 38% |
| COc1ccc(CCNC2=NCCS2)cc1 | -4% |
| O[Si@](CCCN1CCCCC1)(c1ccc(F)cc1)C1CCCCC1 | 36% |
| O=C(O)c1ccc(S(=O)(=O)Nc2ccc(F)c(Cl)c2)cc1 | -10% |
| CC(OC(=O)c1cc2sccc2n1C)C(=O)NCCc1ccccc1 (centres undefined) | 46% |
| c1ccc(-n2nnnc2SCCCSc2nc3ccccc3s2)cc1 | -22% |
| CCCC12CN3CC(C)(CN(C1)C31C(=O)Nc3ccc(C)cc31)C2=O (centres undefined) | 11% |
| COc1ccccc1C(=O)NCC(=O)Nc1ccccc1 | 13% |
| CN(c1ccc(C(=O)Nc2ccccc2C(=O)N2CCCC2)cc1)S(C)(=O)=O | 5% |
| O=C(Nc1ccc2c(c1)OCCO2)c1cncc(Br)c1 | -13% |
| O=C(C1CCN(S(=O)(=O)N2CCC3(CC2)OCCO3)CC1)N1CCc2ccccc2C1 | 62% |

(further entries)
| Molecule | AmpC inh no det |
| --- | --- |
| COC(=O)c1cc(=O)nc2sccn12 | -6% |
| COCCn1c(=O)c(-c2ccc(F)cc2)nc2cnc(OCc3ccccc3)nc21 | 25% |
| CCOC(=O)c1[nH]c2ccc(OC)cc2c1NC(=O)N1CCOCC1 | -2% |
| COc1cccc(C2=NOC(C(=O)NCc3ccco3)C2)c1 (centres undefined) | 9% |
| Cc1ccc2c(c1)N(Cc1ccc3c(c1)OCO3)C(=O)C(C)O2 (centres undefined) | 28% |
| COc1ccc(C2C=C(c3ccc(Br)s3)Nc3ncnn32)cc1OC (centres undefined) | 99% |
| Cn1c(SCC(=O)N2c3ccccc3Sc3ccc(Cl)cc32)nnc1-c1ccco1 | 83% |
| COc1c2c(c3c(c1CCC(=O)O)OC(C)(C)C=C3)OC(C)(C)C=C2 | 3%[5.75 µM] |
| Cc1ccc(-c2nnc(SCC(=O)N3CCCc4ccccc43)n2N)cc1 | 18% |
| CC1CCCC(C)N1C(=O)Nc1cccc(Cl)c1 (centres undefined) | -14% |
| CCCCc1[nH]nc2c1C1(C(=O)N(CC)c3ccccc31)C(C#N)=C(N)O2 (centres undefined) | 9% |
| CCOc1ccccc1N(CC(=O)O)S(=O)(=O)c1ccc(C)cc1 | -1% |
| Cc1nc2cccc(C(=O)NCc3ccccc3)c2o1 | -8% |
| C=CCn1c(SCC(=O)NCc2ccco2)nc2sc3c(c2c1=O)CCC3 | -2% |
| COc1cccc(C2/C(=C(\O)c3c(C)nc4c(C)cccn34)C(=O)C(=O)N2CCCN(C)C)c1 (centres undefined) | -8% |

Continuation.
| Molecule | AmpC inh no det |
| --- | --- |
| COc1cccc(CSc2nc3sc(C)c(C)c3c(=O)n2Cc2ccco2)c1 | -13% |
| C[N+](C)(N)Cc1csc(-c2ccc(Cl)cc2)n1 | 8%[5.75 µM] |
| COc1ccc(N2CCN(C(=O)CC(NC(N)=O)c3cccc(Oc4ccccc4)c3)CC2)cc1 (centres undefined) | 141% |
| Cc1noc(C)c1-c1ccc2ncnc(NCc3cccs3)c2c1 | 8% |
| CCOc1ccc(S(=O)(=O)Nc2cc(Cl)ccc2O)cc1 | -19% |
| CSc1nc(-c2ccco2)nn1C(=O)Cc1ccccc1 | 5% |
| C=CCn1c(Cc2nc3ccc(Cl)cc3[nH]2)n[nH]c1=S | -20% |
| CC(=O)Nc1nc(C)c(-c2csc(Nc3ccc(O)cc3)n2)s1 | ? |
| O=C(CCNc1cc(Cl)cc(Cl)c1)c1ccco1 | -10% |
| COc1ccccc1-n1cnc2cc(C(=O)NCCCN3CCOCC3)ccc21 | 23% |
| Cc1ccc2c(CC(=O)O)coc2c1 | 0% |
| CCC1(C)N(O)C(C)(C)C(c2ccc(OC)cc2)=[N+]1[O-] (centres undefined) | 6% |
| Cc1ccccc1-c1n[nH]c(=S)o1 | -7% |
| COc1ccccc1N1CCN(C(=O)c2cc(-c3ccco3)on2)CC1 | 80% |
| Cc1nc(/N=C\N(C)C)sc1C(=O)Nc1ccccc1 | 3% |

Later entries:
| Molecule | AmpC inh no det |
| --- | --- |
| Cc1ccc(C(C(=O)NC2CCCCC2)N(CCC(C)C)C(=O)CNC(=O)c2ccco2)o1 (centres undefined) | 73% |
| COc1ccc(CN2CCN(C(=O)c3cccnc3)CC2)cc1Br | 40% |
| CCN(CC)S(=O)(=O)c1ccc2oc(C(=O)NC(C)C)c(C)c2c1 | 42% |
| Cn1nc(CC(=O)NCCN2C(=O)CSC2=O)c2ccccc2c1=O | 1% |
| Cc1oc(C(=O)O)cc1COc1cccc2cccnc12 | 0% |
| O=S1(=O)CCC(NS(=O)(=O)/C=C/c2ccccc2)C1 (centres undefined) | -3% |
| Cc1ccc2oc(=O)c3cnn(CC(=O)NCCN(C)C)c3c2c1 | 10% |
| CS(=O)(=O)N1CCC2(CC1)CN(C(=O)Nc1ccccc1)C2 | 5% |
| Cc1ccc(-c2nn(-c3ccccc3)c3[nH]c(=O)c(CNCCN(C)C)cc23)cc1 | 98% |
| CCC(=O)N1CCc2cc(S(=O)(=O)CCC(=O)Nc3ccc(CC)cc3)ccc21 | 19% |
| CCCCOc1cccc(C2(C(=O)O)CCCC2)c1 | 1% |
| Cn1c(C(=O)NCCN2CCc3ccccc3C2)cc2c(=O)n(C)c3ccccc3c21 | 102% |
| Cc1cc2n(n1)C(c1cn(-c3ccccc3)nc1C)Nc1ccccc1-2 (centres undefined) | 15% |
| Cc1ccccc1-c1nc(CS(=O)(=O)CC(=O)NCCCN2CCCC2=O)c(C)o1 | 80% |
| COc1ccc(S(=O)(=O)N2CCOCC2)cc1C(=O)Nc1ccon1 | 16% |

Compounds shown so far that have bromine, in the order listed:
| Molecule | AmpC inh no det |
| --- | --- |
| Cc1csc2nc(CSc3nc4ccccc4o3)c(Br)n12 | 18% |
| O=C(Nc1ccc2c(c1)OCCO2)c1cncc(Br)c1 | -13% |
| COc1ccc(C2C=C(c3ccc(Br)s3)Nc3ncnn32)cc1OC (centres undefined) | 99% |
| COc1ccc(CN2CCN(C(=O)c3cccnc3)CC2)cc1Br | 40% |

Following part
| Molecule | AmpC inh no det |
| --- | --- |
| CCOC(=O)N1CCC(c2nc(C)sc2C(=O)O)CC1 | 3% |
| Cc1ccc(NCc2nnc(SCC(N)=O)n2CCc2ccccc2)cc1 | 70% |
| CCN1C(=O)/C(=C/N2CC(C)CC(C)C2)SC1=S (centres undefined) | -4% |
| O=C(Nc1ccc2c(c1)OCCO2)NC12CC3CC(CC(C3)C1)C2 | -2% |
| Cn1c(=NC(=O)c2cnccn2)sc2ccccc21 | 2% |
| O=C(OCc1c(Cl)nc2sccn12)c1cc2c(s1)CCCC2 | 5% |
| CCOC(=O)N1CCN(C(=O)CCn2c(=S)[nH]c3cc(OCC)c(OCC)cc3c2=O)CC1 | 78% |
| NNC(=O)c1ccc(O)cc1 | -17% |
| COc1cc(OC)cc(OCC(O)Cn2ccnc2C)c1 (centres undefined) | 18% |

Some of the compounds tested; the hit share may differ from the screen's.
